# Cruzain inh Det: blocks cruzain activity in presence of Triton detergent; P25779; purified cruzain, Z-FR-AMC fluorescence, 0.01% Triton; Potency, µM, inactives show max response, negative = inhibition, actives largely listed as inhibitors; 200,000 tested, 0.43% active;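 further: plate controls were neutral wells for no effect and buffer without enzyme for full effect; nearly all actives have a fitted effect of over 40% in size; top concentration of the series not given in the record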
# Target sequence (P25779 123-467 limits assumed): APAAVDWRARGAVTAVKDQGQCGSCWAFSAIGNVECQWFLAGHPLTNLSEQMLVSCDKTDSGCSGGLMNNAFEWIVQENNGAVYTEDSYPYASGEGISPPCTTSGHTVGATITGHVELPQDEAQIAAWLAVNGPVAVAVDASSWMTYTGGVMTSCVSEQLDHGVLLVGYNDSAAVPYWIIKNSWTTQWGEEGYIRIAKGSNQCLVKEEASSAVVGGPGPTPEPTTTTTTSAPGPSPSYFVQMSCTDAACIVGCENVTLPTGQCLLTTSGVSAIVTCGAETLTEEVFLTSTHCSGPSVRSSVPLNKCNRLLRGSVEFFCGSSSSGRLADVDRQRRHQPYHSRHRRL
#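 15 min RT preincubation of 1.5 nM cruzain with compound, then 2 uM Z-FR-AMC added; kinetic AMC fluorescence, 60 s delta. Triton X-100 0.01%, pH 5.5.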
# StopGo reporter: lowers the luciferase signal of an FMDV 2A StopGo reporter; Potency, µM (series often up to 57.9 µM), inactives show at the top dose signal change, negative = less light; AID 1159524; 410,000 tested, 1.2% active; human cells with a luciferase reporter of 2A StopGo recoding; control for the full effect not named in the record; active = well fitted falling curve with a large enough effect; inconclusive = small, poorly fitted or top-dose-only effect; inactive = no such curve, though single readings can be large or run the other way; tested in HEK293T cells; further: on the % scale 0 is the no-effect control and ±100 the full control effect; nearly all actives have a fitted effect of over 45% in size; luciferase light after 4 h
# NS1 function inh: influenza NS1 inhibition; S. cerevisiae slowed by influenza A NS1, growth recovery by OD600; Potency, µM (doses to about 46.1 µM), for the others: top-dose activity, positive = more growth; 270,000 tested, 0.4% active; active means well fitted rising curve with a large enough effect; inconclusive means small, poorly fitted or top-dose-only effect; inactive means no such curve, though single readings can be large or run the other way; further: nearly all actives have a fitted effect of over 50% in size
#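 Recovery from NS1-induced slow growth read by OD600 in budding yeast switched to galactose assay medium (pH 6.0, -URA) at 1:100 dilution. Compound 23 nl per well; the matching strain lacking NS1 serves as control.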
# SARS PLpro yeast: SARS-CoV PLP inhibition in yeast | S. cerevisiae expressing SARS-CoV PLpro, growth rescue; control for the full effect not named in the record | Potency, µM (titrated, usually from 32.9 µM), without a hit: at the top dose activity, positive = growth rescue | 330,000 tested, 0.19% active | AID 485353; active means well fitted rising curve with a large enough effect; inconclusive means small, poorly fitted or top-dose-only effect; inactive means no such curve, though single readings can be large or run the other way; further: 0% is about no effect; nearly all actives have a fitted effect of over 55% in size; growth read by luminescence after 48 h
# Cruzain inh noDet: cruzain (T. cruzi) inhibition without detergent; P25779; purified cruzain, Z-FR-AMC fluorescence, no detergent; Potency, µM, for inactives: max response, negative = inhibition, most hits filed as inhibitors; 200,000 tested, 2.3% active; AID 1476;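 further: plate controls were enzyme without inhibitor for no effect and buffer without enzyme for full effect; nearly all actives have a fitted effect of over 40% in size; top concentration of the series not given in the record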
#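 Detergent-free condition (0.00005% Triton X-100) in acetate buffer pH 5.5 with DTT. 1.5 nM enzyme and compound were pre-mixed 15 min, then 2 uM Z-FR-AMC substrate added; reaction progress from fluorescence change between first and third reads (60 s).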
# LASV entry inh: inhibitors of Lassa virus binding or cell entry; AID 540256; 300,000 tested, 1.2% active; Lassa virus pseudotype entry inhibition, cell reporter; control for the full effect not named in the record; Potency, µM (highest dose often 37.9 µM), for the others: at the highest dose activity change, negative = inhibition, usual class: inhibitors; active means well fitted inhibition curve with a large enough effect; inconclusive means small, poorly fitted or top-dose-only effect, or effect the other way; inactive means flat fitted curve, though single readings scatter; tested in HEK293 cells; further: on the % scale 0 is the no-effect control and ±100 the full control effect; nearly all actives have a fitted effect of over 50% in size; luciferase read-out
# RE007 growth inh: less growth of the S. pombe RE007 Vpr strain. S. pombe RE007 Vpr strain, BacTiter-Glo ATP luminescence, 24 h; control for the full effect not named in the record. Potency, µM (titrated, usually from 92.2 µM), without a hit: at the top dose activity change, negative = less growth. 360,000 tested, 0.21% active; active = well fitted falling curve with a large enough effect; inconclusive = small, poorly fitted or top-dose-only effect; inactive = no such curve, though single readings can be large or run the other way;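 further: on the % scale 0 is the no-effect control and ±100 the full control effect; nearly all actives have a fitted effect of over 50% in size; the assay follows cell death caused by Vpr and the record does not say whether a fall means rescue or toxicity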
#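 Fission yeast RE007 carrying one integrated HIV-1 vpr copy, seeded at OD 0.01 in PMG+AL medium with 23 nL pinned compound. Grown 24 h at 30 degrees; viability read by BacTiter-Glo luminescence after 5 min.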
# MARV entry inh: inhibitors of Marburg virus binding or cell entry. Potency, µM (titrated, usually from 37.8 µM), inactives show top-dose activity change, negative = inhibition, actives largely listed as inhibitors. Marburg virus pseudotyped entry inhibition, cell reporter; control for the full effect not named in the record; about a third of the inactives were read at about 46 µM. 300,000 tested, 1.8% active. AID 540276; active = well fitted inhibition curve with a large enough effect; inconclusive = small, poorly fitted or top-dose-only effect, or effect the other way; inactive = flat fitted curve, though single readings scatter; tested in HEK293 cells; about a fifth of its hits are not listed in these tables; further: on the % scale 0 is the no-effect control and ±100 the full control effect; luciferase read-out
# The depositor's hits bear a star; ? = inconclusive; . = no result given; [ ] = dose if it differs, or a comment. Unless noted, the call rests on the fitted dose curve; in most records, active means well fitted curve in the direction sought with a large enough effect; inconclusive means small, poorly fitted or top-dose-only effect, or another doubt; inactive means no such curve, though single readings can be large; an effect the other way counts as inactive or inconclusive. Potency means the concentration at half of the fitted maximal effect.
compound | RE007 growth inh | SARS PLpro yeast | NS1 function inh | Cruzain inh noDet | MARV entry inh | StopGo reporter | LASV entry inh | Cruzain inh Det
Cc1cc(NC(=O)CSc2nc(-c3ccccc3C)nc3c2c(=O)n(C)c(=O)n3C)no1 | . | . | . | -7% | . | -3% | 6%[46.1 µM] | 4.1%
O=C(Oc1ccc2cc(Br)ccc2c1)c1cccnc1 | -6% | 1% | -2% | -29% | -2% | . | -2% | -29%
COc1ccc(CCNC(=O)c2cn(C)c3ccc(S(=O)(=O)N(C)C4CCCCC4)cc3c2=O)cc1OC | . | . | . | ? | -5%[46.1 µM] | 33%[activator] | 15%[46.1 µM] | -3.0%
COC(=O)c1ccc(Nc2nc(-c3ccncc3)nc3ccccc23)cc1 | 0% | -2% | 2% | . | -22%[46.1 µM] | -10% | 14%[46.1 µM] | .
Cc1cccc(C)c1OCC(=O)N/N=C/c1cc2c(cc1[N+](=O)[O-])OCO2 | 12% | -3% | -5% | -2% | ? | . | 0% | -6.6%
Cc1cccc(N2CCN(C(=O)c3ccc(NS(=O)(=O)c4c(C)noc4C)cc3)CC2)c1C | 11% | -1% | ? | 28% | -8% | -6% | -7% | -4.8%
CCCC(C(=O)N(C)CC(=O)Nc1ccc(N2CCOCC2)cc1)c1ccccc1 (stereo unspecified) | 16% | 0% | . | . | -4%[46.1 µM] | 10% | -3% | .
COCCCNC(=O)c1ccc(Cn2c(=O)c3ccccc3n(Cc3ccc(Cl)cc3)c2=O)cc1 | . | . | . | ? | 3%[46.1 µM] | ? | -1%[46.1 µM] | -4.4%
Cc1ccc(S(=O)(=O)NCC(=O)N2CCN(c3ccc(F)cc3)CC2)cc1 | 23% | -7% | 11% | . | -25% | ? | -5% | .
COc1ccccc1S(=O)(=O)NCc1ccc(C(=O)NC2CCC(O)CC2)cc1 (stereo unspecified) | 8% | -3% | . | . | 8% | -6% | 1% | .
COc1ccc(NC(=O)c2cnc3cc(C)ccn3c2=O)c(OC)c1 | . | . | . | 5% | -20%[46.1 µM] | -7% | . | -2.2%
Cc1ccc(Cn2cc(CCC(=O)NC3CCC(C)CC3)c3ccccc32)cc1 (stereo unspecified) | . | . | . | 13% | . | 2% | ? | -6.6%
CCOc1ccc(NC(=O)c2ccccc2OCC(=O)c2ccc(C)cc2)cc1 | 24% | 5% | 4% | -8% | -16% | 33%[activator] | -23% | 2.1%
COc1ccc(C)cc1NC(=O)C1COc2ccccc2O1 (stereo unspecified) | -15% | -5% | . | . | ? | 31%[activator] | 0%[46.1 µM] | .
COC(=O)c1c(SCC(=O)Nc2cccc(Cl)c2C)[nH]c2ccccc2c1=O | . | . | . | -12% | . | -15% | 2%[46.1 µM] | 0.2%
O=c1cc(-c2ccc(Cl)cc2)[nH][nH]1 | 16% | 10% | ? | 0% | -3% | -10% | ? | 0.9%
COc1ccc(OC)c(NC(=O)c2ccccc2N(C)S(=O)(=O)c2ccc(C)cc2)c1 | 1% | 3% | 13% | . | . | 12% | . | .
COCCN(C(=O)CCC(=O)Nc1ccccn1)C(C(=O)NC(C)(C)C)c1ccc(OC)cc1 (stereo unspecified) | -10% | -2% | 0% | . | 12%[46.1 µM] | -6% | ? | .
O=C(NCc1cccs1)c1csc2ccccc12 | 2% | -10% | -32% | 4% | 17% | 50%[activator] | ? | -13%
O=C(Nc1ncccn1)C12CC3CC(CC(C3)C1)C2 | -8% | 1% | 0% | . | 9%[46.1 µM] | -4% | 23% | .
COc1ccccc1-c1nc(SCC(=O)Nc2cc(C)on2)c2c(=O)n(C)c(=O)n(C)c2n1 | 0% | 2% | 3% | . | -21% | -24% | -3% | .
O=C(CN1C(=O)COc2ccc(Cl)cc21)NCC1CCCO1 (stereo unspecified) | 6% | 1% | 6% | . | . | 7% | . | .
CCOc1ccc(NC(=O)Nc2nnc(N3CCCCC3C)s2)cc1 (stereo unspecified) | . | . | . | ? | ? | ? | -24%[46.1 µM] | -5.5%
COCCn1nnnc1C(c1ccc(Cl)cc1)N1CCSCC1 (stereo unspecified) | -2% | -2% | 1% | 4% | -15% | . | 7% | -0.5%
CC(C)CCN(C(=O)Nc1ccc(Cl)c(Cl)c1)C1CCN(C(C)C)CC1 | . | . | . | -6% | . | -13% | 1%[46.1 µM] | 0.6%
COc1ccc(Br)cc1CNCCc1cccc(Cl)c1 | -11% | -2% | -13% | . | . | 2% | . | .
CCOC(=O)c1ccccc1NC(=O)CSc1ncc(C(=O)OCC)c(N)n1 | 20% | 1% | -23% | -6% | 0%[46.1 µM] | 0% | 0% | -4.4%
Fc1ccc2c(c1)C(c1ccncc1)=NNC(c1ccccc1)=N2 | -6% | -3% | 11% | -9% | ? | -15% | -4% | -3.1%
O=C(NNC(=O)c1ccc(NC(=O)C2CC2)cc1)c1ccc(F)cc1 | -9% | -8% | -15% | . | 18%[46.1 µM] | 7% | 22%[46.1 µM] | .
CC(=O)Nc1ncc2c(n1)CC(c1ccco1)CC2=O (stereo unspecified) | 4% | 2% | 7% | 0% | 4% | -7% | ? | 9.3%
CCCSc1ccc(-c2nn(-c3ccccc3)cc2/C=C(/C#N)C(=O)N2CCOCC2)cc1 | 3% | -2% | ? | ? | 7.1µM* | -12% | ? | -5.1%
Cc1ccc(C)c(NCC(=O)NNC(=S)Nc2ccccc2)c1 | 6% | -1% | 0% | . | 0%[46.1 µM] | 13% | 13%[46.1 µM] | .
Nc1c(C(=O)Nc2ccc(F)cc2)nnn1-c1cccc(C(F)(F)F)c1 | 12% | 1% | . | . | 11%[46.1 µM] | 6% | ? | .
CC(=O)c1ccc(NC(=O)CCSc2nc(-c3ccco3)cc(C(F)(F)F)n2)cc1 | . | . | . | 22% | ? | 20% | 7%[46.1 µM] | -13%
CC(C)CN(C(=O)COC(=O)Cc1cccc2ccccc12)c1c(N)n(Cc2ccccc2)c(=O)[nH]c1=O | 6% | 5% | . | . | -14% | -19% | -16% | .
NC(=O)C1CCN(c2nc(C3CC3)nc3c2nnn3Cc2ccccc2)CC1 | 0% | -10% | 7% | 4% | -3% | 8% | -5% | 1.4%

# A draw from above in order of count of non-hydrogen atoms, descending.
compound | RE007 growth inh | SARS PLpro yeast | NS1 function inh | Cruzain inh noDet | MARV entry inh | StopGo reporter | LASV entry inh | Cruzain inh Det
O=C(NNC(=O)c1ccc(NC(=O)C2CC2)cc1)c1ccc(F)cc1 | -9% | -8% | -15% | . | 18%[46.1 µM] | 7% | 22%[46.1 µM] | .
Fc1ccc2c(c1)C(c1ccncc1)=NNC(c1ccccc1)=N2 | -6% | -3% | 11% | -9% | ? | -15% | -4% | -3.1%
COc1ccc(Br)cc1CNCCc1cccc(Cl)c1 | -11% | -2% | -13% | . | . | 2% | . | .

# Additional entries follow.
compound | RE007 growth inh | SARS PLpro yeast | NS1 function inh | Cruzain inh noDet | MARV entry inh | StopGo reporter | LASV entry inh | Cruzain inh Det
CC1CCCN(S(=O)(=O)c2cccc3nonc23)C1 (stereo unspecified) | -3% | -3% | 7% | . | -12%[46.1 µM] | -10% | ? | .
CCCCCCSc1nc(N)c2c3c(sc2n1)CCCC3C (stereo unspecified) | . | . | . | -26% | 8%[46.1 µM] | 31%[activator] | 21%[46.1 µM] | -4.7%
Cc1nc2sc(C(c3ccccc3)N3CCC(O)CC3)c(O)n2n1 (stereo unspecified) | 4% | 0% | 4% | 0% | 10%[46.1 µM] | 16% | 12% | 6.5%
NC(=O)CSc1nnc(Cn2c(=O)sc3ccccc32)n1CCc1ccccc1 | 11% | -16% | -7% | 2% | . | 8% | . | -1.2%
O=C(C(=O)c1ccc(O)cc1)c1ccccc1 | 10% | 0% | ? | . | . | 9% | . | .
NC(=O)CCn1c(=O)oc2ccccc21 | 0% | -2% | ? | 3% | 8% | -4% | 5% | 0.5%
CCn1cnc2cc(NCc3ccncc3)ccc21 | 2% | 4% | 2% | -5% | 18% | . | -6% | -2.1%
O=C(CC1N=C2c3ccccc3N=C(SCc3ccccc3Cl)N2C1=O)NCc1ccco1 (stereo unspecified) | -17% | 7% | 8% | 7% | ? | 23% | 7% | -28%
CCC(C)NC(=O)Cn1c(=O)n(CCCCCC(=O)NCc2ccccc2Cl)c(=O)c2sccc21 (stereo unspecified) | . | . | . | 11% | -5%[46.1 µM] | -7% | 0%[46.1 µM] | 9.4%
O=C(O)CCC(=O)OCC1CCCCC1 | 11% | 1% | -5% | -4% | 15% | -2% | -26% | -3.4%
CCc1noc(C)c1C(=O)Nc1nc(-c2ccc(OC)cc2OC)cs1 | -1% | 4% | . | . | . | -17% | ? | .
COC(=O)c1c(SC)nc2ccccc2c1OCc1ccccc1C | . | . | . | -15% | . | ? | 25%[46.1 µM] | -1.3%
CC(=O)Nc1cccc(/C(C)=N/NC(=S)NC(C)C)c1 | -7% | -1% | . | . | -17% | -10% | ? | .
NC(=O)COc1ccccc1C1=NO[C@@](CC(=O)O)(C(=O)Nc2ccc3c(c2)OCCO3)C1 | 3% | 1% | 2% | . | . | -11% | . | .
O=C(NC1CCCCC1)c1ccc(Cl)c(NC(=O)c2ccccc2F)c1 | . | -17% | -5% | -10% | 3% | . | -16% | -1.4%
COc1cc(/C=N/Nc2nc(=O)[nH]nc2C)cc(OC)c1O | ? | 0% | 1% | . | 12%[46.1 µM] | 44%[activator] | 2% | .
Cn1c(=O)[nH]c(=O)c2c1nc(NCCCn1ccnc1)n2Cc1cccc(Br)c1 | -15% | -5% | -6% | -8% | 6% | -11% | 20% | -0.4%
N#Cc1cccc(NC(=O)CCNS(=O)(=O)c2ccc3c(c2)CCN3C(=O)C2CC2)c1 | . | . | . | -6% | . | -23% | -7%[46.1 µM] | -0.5%
COc1cc(C2c3cc4c(cc3OC(NNC(N)=S)C2C)OCO4)cc(OC)c1OC (stereo unspecified) | -14% | . | . | . | ? | -19% | ? | .
Cc1cc(C)cc(N=Cc2[nH]c3ccc(Br)c(Cl)c3c2O)c1 | ? | ? | 3% | 4µM* | ? | ? | 2% | -0.8%
CCOc1ccc(NC(=O)CN2C(=O)COc3ccc(S(=O)(=O)N4CCCCC4)cc32)cc1 | 0% | -1% | 12% | . | . | ? | . | .

# Assay outcomes as filed in PubChem.
